Screens from PubChem BioAssay.
Ecoli growth: inhibitors of Escherichia coli growth. OD600, 23 h; stronger effect = lower value. OD600 absorbance (no concentration beside the values). hit rate 0.21% among 330,000. AID 1053175;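 active = OD600 absorbance below the run mean of sample wells minus 3.6 SD, in any replicate, cut at about 0.56 in these data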;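 also: stock transfer was 300 nL into about 60 µL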
Vif TR-FRET: inhibitors of Vif binding to APOBEC3G peptide, primary screen, biochemical, TR-FRET, GST-Vif 1-94, biotin-A3G peptide, dose response retest (AID 1117319). TR-FRET GST-Vif / biotin-A3G peptide binding; higher % means a stronger effect; test concentration not given here; strong numbers were not always called active. one-dose inhibition, %; IC50 in µM for titrated hits. hit rate 0.57% among 260,000;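 active = above the screen mean plus three standard deviations and confirmed in dose response; inconclusive = results disagree or hit not tested in dose response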;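 also: Vif residues 1-94 fused to GST binding biotinylated APOBEC3G peptide 110-148; 0% = full assay without inhibitor and 100% = GST in place of GST-Vif; retest series ran down from 100 µM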
Beta2AR agonist: human beta-2 adrenergic receptor agonism by FAP | P07550 | Am2.2-beta2AR cells, FAP receptor internalization, flow cytometry; reference of the scale not given here | response, % (no concentration beside the values) | hit rate 0.43% among 340,000 | AID 504454;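 active = response above a set limit, near 3 SD of response in nonfluorescent compounds, cut at about 42% in these data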;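 also: stock transfer was 100 nL into about 11 µL; a reference agonist was the positive control; negative values mostly stem from fluorescent compounds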
Target sequence (P07550 whole entry, looked up): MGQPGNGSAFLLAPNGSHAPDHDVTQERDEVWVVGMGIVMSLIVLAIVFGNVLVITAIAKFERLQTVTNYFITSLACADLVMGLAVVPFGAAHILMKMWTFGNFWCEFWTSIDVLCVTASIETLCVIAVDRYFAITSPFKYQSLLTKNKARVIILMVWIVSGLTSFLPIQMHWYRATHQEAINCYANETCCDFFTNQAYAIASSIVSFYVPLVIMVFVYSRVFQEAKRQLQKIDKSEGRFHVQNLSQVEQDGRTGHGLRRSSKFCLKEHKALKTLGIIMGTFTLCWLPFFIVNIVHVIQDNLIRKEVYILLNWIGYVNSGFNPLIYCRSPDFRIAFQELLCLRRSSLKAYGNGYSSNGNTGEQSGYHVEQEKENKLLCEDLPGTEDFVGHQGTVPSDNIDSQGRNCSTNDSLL
Bfl-1 A1 inh: inhibitors of the anti-apoptotic protein A1, read as caspase activation; MEF A1-2A-BIM cells, Caspase-Glo 3/7 luminescence, 3 h; percent of clofoctol response, vehicle zero; caspase activation, % (test concentration not listed); hit rate 0.066% among 330,000;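 active = over half of replicate activation scores above 10%, or exactly half above 10 with the replicate mean above 10; inconclusive = replicate mean below 10 yet half the replicates above 10; inactive = over half of replicates below 10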;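 also: wells of about 30 µL received 50 nL stock; many hits fall short of the cut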
UCH37 inh: human UCH37 deubiquitinating enzyme inhibition | Q9Y5K5 | purified proteasome/UCH37, Ub-AMC cleavage fluorescence | inhibition, % (no concentration beside the values) | hit rate 0.33% among 330,000 | AID 588478;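 active = mean of two replicates above 20%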;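 also: 0% = compound-free wells with enzyme and 100% = wells lacking proteasome; stock transfer was 100 nL into about 20 µL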
Target sequence (Q9Y5K5 whole entry, looked up): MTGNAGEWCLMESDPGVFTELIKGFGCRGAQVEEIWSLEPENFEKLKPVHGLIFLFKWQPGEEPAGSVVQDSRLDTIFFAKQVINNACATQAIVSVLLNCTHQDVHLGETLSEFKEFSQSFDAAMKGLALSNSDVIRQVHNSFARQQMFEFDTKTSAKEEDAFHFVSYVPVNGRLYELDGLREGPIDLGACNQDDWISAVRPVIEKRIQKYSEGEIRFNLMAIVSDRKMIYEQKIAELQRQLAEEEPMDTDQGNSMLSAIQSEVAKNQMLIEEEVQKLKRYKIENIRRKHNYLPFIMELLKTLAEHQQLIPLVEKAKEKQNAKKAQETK
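System: Proteasome-associated human UCH37 deubiquitinase; Input: 0.15 nM proteasome in added enzyme buffer; Also added: Ub-AMC substrate from 1 µM stock; Incubation: 30 min compound-proteasome preincubation then 25 min substrate reaction, room temperature; Detection: fluorescence, ex 355 nm, em 460 nm; Read-out: % inhibition of Ub-AMC cleavage fluorescence; Benchmarks: no-proteasome and no-compound wells.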
HNF4A DNA FP: change in binding of human HNF4 alpha to DNA; AID 1224865; P41235; hit rate 0.3% among 360,000; HNF4a-FITC DNA binding, fluorescence polarization, 1 h; activity change, % at 10 µM; in the data active = activity change above about 30%, passing the limit was not always enough;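 also: controls were the assay level and a saturating level of protein; the project sought stronger binding though the title names inhibitors; some compounds called inactive have numbers as strong as hits; positive values seem to mean higher polarization but the record does not say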
LANA-H2B inh: blocks KSHV LANA binding to histone H2A/H2B. inhibition, % (test concentration not listed). AID 2629. hit rate 0.6% among 320,000. cell-free LANA-H2A/H2B peptide, fluorescence polarization; in the data active = inhibition mostly above about 10%, no sharp cut-off; inactive = mostly below about 6.7%;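 also: stock transfer was 7.5 nL into about 10 µL; 0% = median of vehicle wells and 100% = median of positive control wells; one replicate is shown; the record names a cut of 25% in any replicate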
Starred values were filed as active, the others as inactive; ? = inconclusive; · = no result given.

mol	Ecoli growth	Vif TR-FRET	UCH37 inh	HNF4A DNA FP	Beta2AR agonist	LANA-H2B inh	Bfl-1 A1 inh
CN(C)/C=C(\C#N)C(=O)c1cccnc1Oc1cccc(F)c1	0.71	5%	5.5	1.5	3	-3.9	-0.7
O=C(COC(=O)COc1ccccc1)NCCc1ccccc1	0.69	-1%	4.1	3.2	4	1.5	-0.6
Nc1nc(NCc2cccs2)nn1-c1ccccc1	0.71	·	1.7	0.5	-4	4.5	0.3
Clc1ccc(C2CSc3c4ncnc-4ncn32)cc1 (stereo not given)	0.66	·	4.0	6.0	6	-0.6	0.9
COc1cc2cc(CN(Cc3cccnc3)C(=O)Nc3ccccc3)c(=O)[nH]c2cc1OC	0.7	0%	-81	0.3	0	-5.2	-0.8
COC(=O)C1=C(C(=O)OC)[C@@H]2N(C)c3ccccc3[C@@]23C[C@@H](C(=O)OC)N(C(=O)C2CCC2)C3=N1	·	·	1.0	-1.0	-1	-0.5	0.4
Cc1cc(C2=NNC(=NC3CC3)SC2)c(C)n1-c1ccccc1	0.67	·	6.3	2.5	1	·	·
O=C(NCC1CCCO1)c1ccc(NS(=O)(=O)c2ccccc2)cc1 (stereo not given)	0.72	25%	0.5	-0.5	7	-2.0	-0.5
Cc1ccc(C(=O)N/C(=C\c2ccccc2)C(=O)NCc2cccnc2)cc1	0.71	0%	1.4	-2.9	-5	-0.8	0.1
C(=N\n1cnnc1)/c1cccn1-c1ccccc1	·	-6%	·	2.0	26	1.5	1.7
O=C(Nc1ccc(F)c(Cl)c1)N1CCCC1	0.68	·	3.3	3.9	10	1.9	1.0
c1ccc2c(c1)oc1c(Nc3ccc4c(c3)OCCO4)ncnc12	0.68	3%	-14	2.0	8	2.9	-8.1
CCOC(=O)c1c(-c2ccccc2)csc1NC(=O)CSc1nc(N)cc(N)n1	0.71	·	-1.0	1.6	7	1.0	-1.0
O=C(CN1C(=O)c2ccccc2C1=O)Nc1ccc(S(=O)(=O)N2CCOCC2)cc1	0.71	-2%	0.2	2.9	-2	1.5	0.3
COCCn1c(=N)c(S(=O)(=O)c2ccc(F)cc2)cc2c(=O)n3ccccc3nc21	0.66	-2%	-163	3.8	5	1.1	-0.5
CCOC(=O)c1cc2c(=O)n3cccc(C)c3nc2n(CC(C)C)c1=NC(=O)c1ccco1	0.73	-15%	-150	3.0	5	4.3	-0.2
O=C1C2C(c3ccccc3)C=CC(c3ccccc3)C2C(=O)N1c1cccnc1 (stereo not given)	0.68	·	-1.4	3.0	-13	2.3	?
COc1ccc(OC)c(C2SCCN2S(C)(=O)=O)c1 (stereo not given)	0.74	-4%	2.3	-1.0	2	4.5	-0.5
C=CCn1c(CNS(=O)(=O)c2ccc(Br)cc2)nnc1SC	0.72	·	4.1	-2.0	-1	5.1	0.8
Cc1noc(C)c1CN(C(=S)NC(C)C)c1ccccc1	0.7	0%	2.6	0.3	-1	-4.0	1.2
CCC(=NCCc1ccccc1)C1=C(O)CCC1=O	0.78	1%	4.5	-3.4	-5	-5.4	-0.2
CCOCC(=O)Nc1c(C(=O)Nc2ccccc2OC)oc2ccccc12	0.76	-5%	-318	-2.1	-1	-0.2	-0.4
O=C(Cc1ccc(Cl)cc1)NCc1ccccc1Cl	0.69	3%	0.7	-0.9	0	-0.5	-0.3
COc1cc2c(cc1OC)C(c1ccccc1)N(C(=O)C(C)(C)C)CC2 (stereo not given)	0.67	-3%	2.3	1.4	-3	·	·
CCN(CCCNC(=O)CCCn1c(=O)[nH]c2ccccc2c1=O)c1cccc(C)c1	0.74	0%	-1.9	13	-8	-1.8	0.1
COc1ccc2nc(SCc3ccccc3C)nc(C)c2c1	0.71	-15%	-20	-0.8	-8	0.7	1.1
Cc1cc(N2C(=O)C(O)=C(C(=O)c3ccco3)C2c2cccc(Cl)c2)no1 (stereo not given)	0.69	·	6.7	-2.8	7	0.2	-0.3
N#Cc1nc(Cc2cccc3ccccc23)oc1NCCCN1CCOCC1	0.57	20%	2.8	2.4	2	4.3	0.5
CN(C)S(=O)(=O)c1ccc(NC(=O)N2CCOCC2)cc1	0.67	-4%	4.0	5.6	10	-0.5	0.4
CC1(C)CC(=O)C=C(Nc2ccc(Br)cn2)C1	0.69	2%	5.2	0.2	2	-6.0	-0.9

Some of the entries above, set out differently:
Values run as follows: Ecoli growth	Vif TR-FRET	UCH37 inh	HNF4A DNA FP	Beta2AR agonist	LANA-H2B inh	Bfl-1 A1 inh
- Cc1cc(N2C(=O)C(O)=C(C(=O)c3ccco3)C2c2cccc(Cl)c2)no1 (stereo not given)
  0.69	·	6.7	-2.8	7	0.2	-0.3
- CN(C)S(=O)(=O)c1ccc(NC(=O)N2CCOCC2)cc1
  0.67	-4%	4.0	5.6	10	-0.5	0.4

Next results follow:
mol	Ecoli growth	Vif TR-FRET	UCH37 inh	HNF4A DNA FP	Beta2AR agonist	LANA-H2B inh	Bfl-1 A1 inh
COc1ccc(CCNC(=O)CCS(=O)(=O)c2ccc3c(c2)CCN3C(C)=O)cc1OC	0.68	-2%	0.5	0.5	9	-0.7	2.0
Cc1ccnc(NC(=O)c2cccs2)c1	0.76	9%	-0.7	0.2	-4	2.7	-12
Cc1ccccc1-n1ccnc1SCC(=O)NC1CCCC1	0.71	·	4.0	-4.3	-7	-7.5	1.7
COc1ccc(NC(=O)NNS(=O)(=O)c2cc(C)ccc2C)cc1OC	0.74	5%	3.6	-4.2	-2	-1.1	0.1
CC(OC(=O)C1CC(=O)N(Cc2ccco2)C1)C(=O)Nc1cccc(C#N)c1 (stereo not given)	0.69	0%	-2.4	3.2	1	·	·
CN(C)c1ccc(S(=O)(=O)N2CCCCC2)cc1NC(=O)CCNC(=O)c1ccccc1Cl	0.66	·	-1.1	3.7	1	·	·
CC1CCCC(=NNc2ccc3ccccc3n2)C1 (stereo not given)	·	-2%	·	2.1	0	·	·
O=C(CCN1C(=O)C2C3CC(C(Br)C3Br)C2C1=O)OCC(=O)c1ccccc1 (stereo not given)	0.68	7%	4.5	0.3	3	2.8	-0.1
O=C(CSc1nnc(NC2CCCCC2)s1)Nc1ccc2c(c1)C(=O)c1ccccc1C2=O	·	1%	·	1.2	18	-3.8	-1.0
COc1ccc(C(=O)OCC(=O)c2ccc3c(c2)NC(=O)CO3)cc1OC	0.68	·	-2.5	-3.8	-2	-1.0	0.4
CCN(CC)S(=O)(=O)c1cccc(C(=O)NCC(c2ccccc2)N(C)C)c1 (stereo not given)	0.74	1%	4.3	2.1	3	2.6	0.1
C=CCn1c(C)nnc1SCC(=O)Nc1nccs1	0.67	5%	5.5	-2.5	0	1.1	1.2
Cn1c(N)c(C(=O)c2ccc(Cl)c(S(=O)(=O)N3CCCCCC3)c2)c(=O)n(C)c1=O	0.71	·	3.7	7.6	-2	-2.2	-0.5
C=CCn1c(SCC(=O)NC(=O)c2cccc([N+](=O)[O-])c2)nnc1-c1ccccc1	0.67	-2%	2.0	1.6	8	5.3	0.1
Clc1ccccc1CN(Cc1ccco1)Cc1nnnn1C1CCCC1	0.67	5%	2.2	-3.4	-2	4.2	-0.2
CCCCNC(=O)Nc1nnc(-c2ccc(OCC)cc2)o1	0.7	3%	1.4	0.3	-6	-7.9	0.2
CCOCCCNC(=O)C(c1ccc(OC)cc1)N(Cc1cccs1)C(=O)c1ccccn1 (stereo not given)	0.68	·	-0.4	2.5	10	-2.6	0.0
FC(F)(F)c1ccc2c(c1)NCC1CCCN21 (stereo not given)	0.7	32%	-8.5	9.3	15	1.4	0.5
O=C(CCN1C(=O)C2(OCCO2)c2ccccc21)c1ccccc1	0.76	-1%	2.4	1.2	5	-1.6	-0.1
C=CCOc1ccc(CNc2nccs2)cc1OCC	0.69	2%	4.3	1.1	0	-0.2	-0.2
O=C1/C(=C/c2ccccn2)SC(=S)N1Cc1ccccc1	0.7	·	4.3	7.7	-5	1.0	-0.7
CCCCn1cnc2c(SCc3ccc([N+](=O)[O-])cc3)nc(N)nc21	0.66	-10%	0.0	2.1	-3	·	·
COc1ccccc1NC(=S)NC(=O)/C=C/c1ccco1	0.68	·	4.2	3.2	1	1.4	0.2
O=C(COC(=O)Cc1c(F)cccc1Cl)NC(=O)c1ccccc1	0.69	·	4.5	-0.7	2	-0.8	0.1
CCn1ccc(C(=O)Nc2sc3c(c2C(=O)OC)CCC3)n1	0.73	0%	-63	2.0	4	5.7	2.2
COC(=O)c1ccc(CNC(=O)[C@@H]2CCCN2S(=O)(=O)c2ccccc2F)cc1	0.66	·	-0.1	1.1	4	5.1	0.7
O=C(CSc1ncc(-c2ccc(F)cc2)n1Cc1ccco1)Nc1ccc2c(c1)OCO2	0.68	16%	5.2	-2.4	6	3.8	-2.7
CC1(C)NC(=O)N(CCCCOc2ccc(Cl)cc2)C1=O	0.69	-2%	6.1	-2.1	2	-4.0	-0.5
COc1ccc(N(CC(=O)Nc2ccccc2C(N)=O)S(=O)(=O)c2ccc(C)c([N+](=O)[O-])c2)cc1	0.72	6%	3.9	4.4	-14	0.9	0.4
Cc1[nH]n(-c2ccc([N+](=O)[O-])cc2)c(=O)c1C=NCCN1CCN(C(=O)c2ccc(Br)cc2)CC1	0.68	5%	3.7	1.0	-2	1.7	-7.0
COc1ccc(Nc2ccc(N3C(=O)CCC3=O)cc2[N+](=O)[O-])cn1	0.7	-5%	6.6	2.5	-24	2.7	1.6
CCCOn1nnnc1-c1ccccc1	0.75	30%	0.0	-0.1	2	-6.1	-0.3
CCCN1CCN(CCCNC(=O)C2CCN(c3nnc(-n4cccc4)s3)CC2)CC1	0.7	5%	1.7	4.4	3	-2.9	0.1
CSc1ccc(Cl)c(C(=O)Nc2ccc(OCC(N)=O)cc2)c1	0.7	1%	4.8	2.7	-2	-11	1.5
COc1ccc(C(=O)OCC(=O)N(C)C2CCS(=O)(=O)C2)cc1S(=O)(=O)N(C)Cc1ccccc1 (stereo not given)	0.69	4%	0.2	1.1	-4	0.0	0.0
CCOc1ccc(/C=C(\C(=O)O)c2ccc(S(=O)(=O)N3CCCCC3)s2)cc1OC	0.71	7%	4.9	1.3	4	-4.5	-0.1
COc1ccc(CSc2nnc(N)s2)cc1F	0.67	-8%	2.6	-1.4	0	0.4	0.0
C/C(N)=C(/C#N)C(=O)COc1ncnc2ccc(Br)cc12	0.68	-3%	2.2	-0.8	-2	2.5	-0.2
CCN=C1SC(C(=O)Nc2cccc(OCC)c2)CC(=O)N1CC (stereo not given)	0.67	-2%	0.5	-0.1	0	1.5	0.9
CCOC(=O)c1sc(N(Cc2ccccc2)C(=O)COC(=O)c2ccc(O)cc2)nc1C	0.69	4%	-0.8	3.2	17	-4.5	-0.5
COc1ccc(C2=NCCc3cc(OC)c(OC)cc32)cc1	0.67	·	-2.4	1.6	8	4.2	-0.6
Oc1ccc(/C=N/N2CCOCC2)c(O)c1O	·	12µM*	·	4.4	0	-0.8	-2.6
CC(/C=C/c1ccccc1)=N\NC(=O)Cn1cncn1	·	1%	·	4.5	-3	-5.4	0.5
O=C(Nc1cccc(-c2ccc(N3CCCCC3)nn2)c1)c1ccc(Br)o1	0.66	-8%	-0.9	-1.1	22	-4.7	-8.7
CC(=O)OCC1OC(n2c(S)c(C#N)c(-c3ccccc3)c(C#N)c2=O)C(OC(C)=O)C(OC(C)=O)C1OC(C)=O (stereo not given)	·	-26%	·	-3.0	-5	·	·
